# Assay outcomes: PubChem BioAssay, National Center for Advancing Translational Sciences (NCATS)
# VDR inh: vitamin D3 receptor (human) inhibition; 0.93% of 400,000 active; P11473; VDR-SRC2-3 peptide fluorescence polarization, 2 h; Potency, µM, without a hit: max response, negative = inhibition, actives largely listed as inhibitors; active = well fitted inhibition curve with a large enough effect; inconclusive = small, poorly fitted or top-dose-only effect, or another doubt; inactive = no such curve, though single readings can be large or run the other way; also: series mostly up to about 120 µM
# Target sequence (P11473 whole entry, looked up): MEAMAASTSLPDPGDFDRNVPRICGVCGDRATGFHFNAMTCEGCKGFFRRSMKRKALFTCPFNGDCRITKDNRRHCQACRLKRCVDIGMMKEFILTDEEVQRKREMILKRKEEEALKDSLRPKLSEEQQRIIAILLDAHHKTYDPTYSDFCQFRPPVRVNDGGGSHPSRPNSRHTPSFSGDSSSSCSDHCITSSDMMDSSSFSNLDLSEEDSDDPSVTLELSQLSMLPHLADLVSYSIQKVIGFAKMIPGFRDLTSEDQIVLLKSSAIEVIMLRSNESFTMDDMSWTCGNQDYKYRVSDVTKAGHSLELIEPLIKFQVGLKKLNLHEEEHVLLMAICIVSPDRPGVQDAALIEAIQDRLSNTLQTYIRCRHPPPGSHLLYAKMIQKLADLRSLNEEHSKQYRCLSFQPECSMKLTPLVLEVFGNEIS
#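 Fluorescence polarization assay of small-molecule disruption of VDR binding to coregulator peptide SRC2-3. Compounds and controls pin-transferred, then read after 2 h incubation at ambient room temperature.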
# * hit, by the source's call; u = inconclusive; & = joins results of further samples. % is scaled to controls: 0 for no effect and ±100 for the full control effect; potency is read from the fitted curve at half-maximal effect. These rows are one share of the data; count on the stated rates, not on these rows.
VDR inh	canonical_smiles
-1.5%	O=[N+]([O-])c1cncc([N+](=O)[O-])c1Nc1cccc(O)c1
-1.7%	CCCCCC(=O)Cc1cc(O)cc(O)c1C(=O)Oc1cc(CC(=O)CCCCC)c(C(=O)O)c(OC)c1
3.3%	CC1CCCCC1NC(=O)COc1ccc(-n2cnnn2)cc1 (stereo unspecified)
-10.1%	O=C(c1cc(=O)[nH]c2ccccc12)N1CCN(c2ccccc2)CC1
8.8%	COc1ccc(-c2oc3ccc(-c4ccc(OC)nc4)cc3c2C#CC2(O)CCCCC2)cc1
-25.3%	O=C(Nc1nc(-c2cccs2)c(C(=O)C(F)(F)F)s1)c1ccco1
0.4%	COC(C[C@@H]1O[C@H]1[C@H](O)COCc1ccccc1)OC
10.1%	COC(=O)C1=CO[C@@H](O[C@@H]2O[C@H](CO)[C@@H](O)[C@H](O)[C@H]2O)C2C1CC(O)O[C@H]2C (stereo partly specified)
13.8%	CCn1c(SCc2ccc(OC)cc2)nnc1-c1ccncc1
-12.9%	COc1cc2cnc(-c3ccccc3)c(-c3ccc([N+](=O)[O-])cc3)c2cc1OC
-7.2%	Cc1ccc(CSc2nnc3nc(C)cc(C)n23)cc1
3.3%	S=C(NCCCc1cnc[nH]1)NCCCN(Cc1ccc(Cl)cc1)c1ccc(Br)cc1
-14.8%	Cc1ccc(OCC(=O)NCC(=O)Nc2ccc(F)c(F)c2F)c([N+](=O)[O-])n1
2.2%	Cc1[nH]c(=O)[nH]c(=O)c1S(=O)(=O)Nc1ccc(F)c([N+](=O)[O-])c1
2.1%	COc1ccc(C(C)NC(=O)C23CC4CC(CC(C4)C2)C3)cc1 (stereo unspecified)
2.4%	COc1cc(Br)c(CC(=O)NNC(=O)c2ccc(F)cc2)cc1OC

# 4 entries from above in another layout:
SMILES: COc1cc2cnc(-c3ccccc3)c(-c3ccc([N+](=O)[O-])cc3)c2cc1OC
  VDR inh = -12.9%
SMILES: Cc1ccc(CSc2nnc3nc(C)cc(C)n23)cc1
  VDR inh = -7.2%
SMILES: S=C(NCCCc1cnc[nH]1)NCCCN(Cc1ccc(Cl)cc1)c1ccc(Br)cc1
  VDR inh = 3.3%
SMILES: Cc1ccc(OCC(=O)NCC(=O)Nc2ccc(F)c(F)c2F)c([N+](=O)[O-])n1
  VDR inh = -14.8%

# Further structures follow:
VDR inh	canonical_smiles
-3.9%	CCOc1ccc(NC(=O)CN(C)C(=O)c2ccc(C)o2)cc1OCC
-5.5%	O=C(Cc1cc(=O)[nH]c(=O)[nH]1)NCc1ccccc1
9.1%	Cc1cccc(NS(=O)(=O)c2ccc3c(c2)OCC(C(=O)N2CCCC2)O3)c1C (stereo unspecified)
4.1%	CN1CCN(c2nc(-c3cccc(C#N)c3)nc3ccccc23)CC1
-6.7%	O=C(c1ccc(CS(=O)(=O)Cc2ccccc2)cc1)N1CCCCC1
-29.7%	COC(=O)C1=NN(C(=O)c2cccc(Br)c2)C(O)(c2ccc(Cl)cc2)C1 (stereo unspecified)
-2.1%	COc1ccc(CNC(=O)CCC(=O)Nc2nnc(CC(C)C)s2)cc1
-16.9%	COc1ccccc1-c1nnc(SCC(=O)NCc2ccco2)n1N
-4.0%	COc1ccc(C(=O)NCC(c2ccc3c(c2)OCO3)N2CCN(c3ccc(OC)cc3)CC2)cc1 (stereo unspecified)
-23.7%	O=C(NCCCN1CCOCC1)c1ccc2c(c1)N(Cc1cccc(F)c1)C(=O)c1ccccc1S2
-21.9%	O=C(Oc1ccccc1C(=S)N1CCOCC1)c1cccc([N+](=O)[O-])c1
-3.5%	CC(C)OC(=O)/C(C#N)=C/c1cn(Cc2ccccc2)c2ccccc12
-1.7%	Cc1cc(Cl)ccc1OCC(=O)NCCOc1nc(N2CCOCC2)nc(N2CCOCC2)n1
-11.6%	COc1cc(/C=C/c2ccc3c([N+](=O)[O-])cccc3n2)ccc1OCC(=O)O
16.5%	Cc1sc2ncn(CC(=O)NCc3ccccn3)c(=O)c2c1S(=O)(=O)N1CCOCC1
-9.9%	O=C(CCCn1c(=O)c2ccccc2n(CC(=O)N2CCN(c3ccccc3)CC2)c1=O)NCc1ccco1

# Gathered by group, the entries above with a Cl atom.
VDR inh	canonical_smiles
3.3%	S=C(NCCCc1cnc[nH]1)NCCCN(Cc1ccc(Cl)cc1)c1ccc(Br)cc1
-29.7%	COC(=O)C1=NN(C(=O)c2cccc(Br)c2)C(O)(c2ccc(Cl)cc2)C1 (stereo unspecified)
-1.7%	Cc1cc(Cl)ccc1OCC(=O)NCCOc1nc(N2CCOCC2)nc(N2CCOCC2)n1

# Continuation:
VDR inh	canonical_smiles
-12.9%&8.1%	COc1ccc(C(CC(=O)Nc2ncccc2C)N2Cc3ccccc3C2=O)cc1OC (stereo unspecified)
-11.0%	O=C(CC1CC2CCC1C2)OCC(=O)c1c[nH]c2ccccc12 (stereo unspecified)
-5.6%	CC(C)CC(=O)NC(=S)Nc1ccccc1C(=O)Nc1ccccc1
19.1%	CCCCOc1ccc(C(=O)NCCCC(=O)N2CCCCC2)cc1
-14.0%	COc1ccc(C)cc1NCc1ccc([N+](=O)[O-])cc1
0.2%	CCCCC/C=C\C=C\[C@@H](O)CCCCCCCC(=O)O
3.1%	COc1ccccc1NC(=S)NCC1CCCO1 (stereo unspecified)
6.1%	Cc1cccc(C2C=C(c3ccc(C)c(C)c3)Nc3nnnn32)c1 (stereo unspecified)
u	Cc1cc(NCCNC2=CC(=O)CCC2)nc2ccccc12
-9.8%	CC(C)NS(=O)(=O)c1ccc(OCC(N)=O)c(Cl)c1
-3.8%	Cc1ccc(C)c(OCc2cc(C(=O)NC(C)c3cnn(C)c3)no2)c1 (stereo unspecified)
-4.3%	CCCn1c(N)c(N(CCOC)C(=O)CSc2cc(C)c3cccc(C)c3n2)c(=O)[nH]c1=O
5.3%	CCC(=O)NC(C)c1nc2ccccc2n1C (stereo unspecified)
-4.7%	Cc1ccc(OCc2nc(C#N)c(NCc3ccc4c(c3)OCO4)o2)cc1
14.6%	C=CCc1c(C)nc2c(C(=O)O)cnn2c1C
5.2%	COc1ccc(C(=O)NCc2nnnn2-c2ccc(C)c(C)c2)cc1
-2.3%	CSc1cccc(NS(=O)(=O)c2cccs2)c1
-6.5%	COc1ccccc1CCC(=O)OCC(=O)Nc1cccc(S(=O)(=O)N2CCOCC2)c1
9.4%	COc1ccc(S(=O)(=O)N2CCN(c3nc(C)cc(C)n3)CC2)cc1
-23.1%	Cc1ccc(C)c(S(=O)(=O)N2CCCOC2CNC(=O)C(=O)NCc2ccccn2)c1 (stereo unspecified)
-4.5%	S=C1CSc2ccccc2N1
-2.8%	Cc1ccsc1CCN1C(=O)N(c2ccccc2)C(=O)C1CC(=O)Nc1ccc(F)cc1 (stereo unspecified)
-20.6%	Fc1ccc(-c2csc(=Nc3cccc(C(F)(F)F)c3)n2Cc2ccc3c(c2)OCO3)cc1
6.0%	O=C(COc1cccc(-n2cnnn2)c1)Nc1ccccc1
6.4%	COC(=O)c1ccc(CN2CCC(CO)(Cc3cccc(OC)c3)CC2)cc1
1.0%	CC(C)CNC(=O)C1CCCN(C(=O)NCc2ccccc2)C1 (stereo unspecified)
-14.3%	CCN(CC)CCCNc1nc2cc(OC)c(OC)cc2c2nc(-c3cccnc3)nn12
1.8%	COc1cccc(CNC(=O)Cn2ncn3nc(-c4cccs4)cc3c2=O)c1OC
-10.9%	Cc1cccc(-c2nc(C)c(CCNC(=O)C(=O)Nc3ccccc3C#N)s2)c1
10.8%	O=C(Nc1cccc(S(=O)(=O)N2CCOCC2)c1)c1ccccc1[N+](=O)[O-]
-12.9%	O=C(N/N=C\c1ccc(COc2ccc([N+](=O)[O-])cc2)o1)c1ccc(Cl)cc1
0.6%	Cc1cc(N2CCC(C)CC2)nc(-n2nc(C)cc2C)n1
20.9%	Nc1cc(-c2ccccc2)nn1Cc1ccccc1
-12.9%	CN(C)S(=O)(=O)c1ccc(C(=O)NCc2nnc(SCC(=O)N3CCCC3)o2)cc1
1.0%	CCN(CC)C(=O)c1nc[nH]c1C(=O)N1CCC(C)CC1
1.5%	CCCCC(c1nnnn1C1CCCC1)N1CCN(C(=O)c2ccco2)CC1 (stereo unspecified)
17.4%	COc1ccc(NC(=O)/C(C#N)=C/c2cc(C)n(-c3ccc(F)cc3)c2C)cc1
5.9%	Cc1ccc(-c2n[nH]c3c2C(c2ccc(C(C)(C)C)cc2)NC3=O)cc1 (stereo unspecified)
-6.2%	Nc1nncn1C(=O)CCc1ccccc1
2.5%	CC1(C)CC2CC(C)(CN2S(=O)(=O)c2cccc(N)c2)C1 (stereo unspecified)

# An excerpt from above in order of the VDR inh value, smallest number first:
VDR inh	canonical_smiles
-12.9%	CN(C)S(=O)(=O)c1ccc(C(=O)NCc2nnc(SCC(=O)N3CCCC3)o2)cc1
-10.1%	O=C(c1cc(=O)[nH]c2ccccc12)N1CCN(c2ccccc2)CC1
-1.7%	CCCCCC(=O)Cc1cc(O)cc(O)c1C(=O)Oc1cc(CC(=O)CCCCC)c(C(=O)O)c(OC)c1
10.8%	O=C(Nc1cccc(S(=O)(=O)N2CCOCC2)c1)c1ccccc1[N+](=O)[O-]

# Additional entries
VDR inh	canonical_smiles
22.4µM*	Cc1sc2ccccc2[n+]1CC(=O)O
3.3%	COc1ccc(N(C(=O)c2snc(C(N)=O)c2N)C(C(=O)NCc2ccccc2)c2ccc(O)cc2)cc1 (stereo unspecified)
-0.1%	CN(Cc1ccccc1)CC(O)COc1ccc(CNCc2cc3ccccc3s2)cc1 (stereo unspecified)
19.8%	O=C(Nc1ccc(NC(=O)c2ccccc2F)cn1)c1ccco1
-23.5%	O=C(CNC(=O)c1ccccc1)Nc1cccc(C(F)(F)F)c1
-22.2%	CN(c1ccc([N+](=O)[O-])cc1C(N)=O)C1CCCCC1
-0.8%	C[C@@H](C(=O)NCc1ccccc1)N1C(=O)C2CC=CCC2C1=O (stereo partly specified)
-0.9%	CCN1CCCC1CNC(=O)CN1C(=O)COc2ccc(C)cc21 (stereo unspecified)
-11.6%	COc1cc(S(=O)(=O)N2CCN(c3ccccc3)CC2)ccc1F
-7.9%	Cc1ccnc(NS(=O)(=O)c2ccc(NC(=O)c3ccc(S(=O)(=O)N4CCOCC4)cc3)cc2)n1
20.9%	CC(C)C(C(=O)NCC1CCCO1)N(Cc1cccs1)C(=O)CNS(=O)(=O)c1ccccc1 (stereo unspecified)
29.4%	CCC1CCc2nc3sc(C(=O)Nc4ccc(C)cc4C)c(N)c3cc2C1 (stereo unspecified)
-5.8%	CC1CN(c2nc(Nc3ccccc3)nc(N)c2[N+](=O)[O-])CC(C)O1 (stereo unspecified)
8.0%	CN(C(=O)c1ccc(NC(=O)Cc2cccc(NC(=O)C3CCN(C(=O)CCc4ccccc4)CC3)c2)cc1)C1CCCC1
10.5%	CC(C)NC(=O)c1ccc(-n2c(-c3ccccc3)cc3c2CCCC3)cc1
-12.6%	CCOC(=O)c1cnc(SCc2cccc3ccccc23)nc1N
16.4%	COc1ccc(/C=C/C(=O)NCc2cnn(C)c2C)cc1COc1ccc(Br)cc1
-13.6%	Cc1ccc(-c2nnn(CC(=O)N(Cc3cccs3)C(C(=O)NC3CCCC3)c3ccco3)n2)o1 (stereo unspecified)
-9.4%	Cc1ccc(S(=O)(=O)Oc2ccc(C3C4=C(CCCC4=O)OC4=C3C(=O)CCC4)cc2)cc1
-6.7%	Cc1ccc(-c2nn3nnnc3c3ccccc23)cc1C
-12.9%	COC(=O)c1c(C(=O)OC)c(-c2ccc(C)cc2)n2c1CS(=O)C2 (stereo unspecified)
16.8%	COc1ccccc1N1CCN(CCCN2C(=O)C3CCCCN3C2=O)CC1 (stereo unspecified)
-8.1%	Clc1ccc(CN2CCN(/N=C/c3cccnc3)CC2)cc1
5.5%	CCOc1ccc(S(=O)(=O)NCCC(=O)NC2CCCCC2)cc1
7.5%	COC(=O)c1sccc1NC(=O)c1ccc(C)cc1
2.6%	COc1ccc(S(=O)(=O)Nc2cc(S(=O)(=O)c3ccccc3)c(O)c(C)c2C)cc1
-16.1%	O=C(Nc1ccncc1)Nc1ccc(F)cc1F
-5.7%	CCC(C)NC(=O)c1n[nH]c(=O)c2ccccc12 (stereo unspecified)
-0.9%	Cc1sc2ncnc(N3CCN(S(=O)(=O)c4ccc(C(C)(C)C)cc4)CC3)c2c1C
3.0%	Cc1cccc(NC(=O)NCC(c2cccnc2)N2CCOCC2)c1 (stereo unspecified)
17.2%	O=C(Nn1c(=S)[nH]c2ccccc2c1=O)c1ccncc1
-4.8%	Cc1ccc(C)c(N2CCN(C(=O)NCc3noc4ccccc34)CC2)c1
-8.8%	O=C(CCc1nc2ccccc2c(=O)[nH]1)Nc1cc(Cl)ccc1N1CCCCC1
0.9%	COCCN(Cc1ccccc1)C(=O)C1CCN(C(=O)Nc2ccccc2)CC1
4.8%	CCOC(=O)C(NC(=O)CC)(N1CCc2ccccc2C1)C(F)(F)F (stereo unspecified)
11.7%	O=C(CCc1c[nH]c2ccccc12)NCc1ccc2c(c1)OCO2
7.9%	CSc1ccc(C(=O)Nc2cc(S(=O)(=O)N3CCOCC3)ccc2N2CCOCC2)cc1[N+](=O)[O-]
-22.8%	CCOc1ccc2nc(SCc3cccc(C)c3)nc(C)c2c1
-11.9%	N/C(Cc1cccs1)=N\OC(=O)COc1ccccc1
-4.7%	NS(=O)(=O)c1ccc(NC(=O)CCC2CCCCC2)cc1
2.8%	O=C(NNC(=O)c1ccc2nonc2c1)Nc1ccc(Cl)cc1
-25.1%	O=C(NCc1nc2ccccc2[nH]1)C1CCCCC1
9.7%	O=C1CCC([N+](=O)[O-])C(c2ccc(C(F)(F)F)cc2)N1 (stereo unspecified)
-2.8%	COc1ccccc1C(=O)Nc1c(C)n(C)n(-c2ccccc2)c1=O
22.1%	COC(=O)C1=C(N)Oc2cc(C)[nH]c(=O)c2C1c1cccnc1 (stereo unspecified)
-2.7%	CCCCC1CC(=O)NC1(C(=O)OCC)C(=O)OCC (stereo unspecified)
-10.4%	O=C(O)CN1C(=O)/C(=C/C=C/c2ccccc2)SC1=S
7.1%	Nc1cc(C(F)(F)F)ccc1Nc1ccccc1
-2.2%	CC1=[N+](C)N(c2ccccc2)C(=O)C1N=Cc1c(Cl)cccc1Cl (stereo unspecified)
